Assay outcomes deposited in PubChem by National Center for Advancing Translational Sciences (NCATS).
ClpP mod: qHTS Assay for Activators of ClpP; purified B. subtilis ClpP, FRET peptide cleavage, 20 min; Potency, µM (highest dose often 57.5 µM), inactives show top-dose activity change, negative = active; 1.9% of 340,000 active; AID 651965, 2013; active = well fitted falling curve with a large enough effect; inconclusive = small, poorly fitted or top-dose-only effect; inactive = no such curve, though single readings can be large or run the other way; also: potency is read from the fitted curve at half-maximal effect; the source files actives as falling curves though it sought activators and does not explain the sign; nearly all actives have a fitted effect of over 65% in size; many hits overshoot -100%
Target sequence (P80244 whole entry, looked up): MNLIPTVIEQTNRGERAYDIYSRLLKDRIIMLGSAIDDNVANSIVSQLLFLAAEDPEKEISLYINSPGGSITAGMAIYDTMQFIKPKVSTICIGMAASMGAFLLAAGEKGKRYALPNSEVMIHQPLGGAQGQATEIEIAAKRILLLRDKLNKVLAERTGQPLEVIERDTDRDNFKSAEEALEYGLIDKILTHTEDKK
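ClpP 10 microg/mL final, pH 8 Tris/KCl buffer with BSA, glycerol, Tween-20; compound pinned in; FRET-FV substrate; RT 20 min; Ex320/Em430; ΔFRET vs ADEP 5.8 microM, DMSO, no enzyme.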
Menin MLL FP FL: inhibitors of human menin-MLL interaction, wild-type MLL peptide; Fluorescence polarization, fluorescein-MLL peptide displacement from menin; FP activity change, % at 61.4 µM; 290,000 tested, under 10 active; AID 1766; inconclusive = falling polarisation curve, or a change in total fluorescence; inactive = total fluorescence flat and polarisation flat or rising; no compound was filed as active; the % refers to the polarisation; negative = inhibition;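 also: % of control where 0% means no effect; inhibitors lower the polarisation; unlabelled MLL peptide was the positive control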
TRPML1 inh: human mucolipin-1 channel inhibition; activity change, negative = inhibition, % (test concentration not listed); AID 624415; Q9GZU1; TRPML1-inducible cells, Ca2+ dye fluorescence, FDSS; hits give low values; inhibition of EC80 agonist-evoked calcium signal; 0.02% of 390,000 active; in the data active means activity change below about -50%; inconclusive means about -30% to -50%; inactive means above about -30%;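 also: stimulus is agonist 54-4 at its EC80 concentration; % is scaled to controls: 0 for no effect and ±100 for the full control effect; compound concentration not given in the record; the text of the record puts the active cut at -80%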
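TRPML1-DL cells, Tet-induced overnight (~16 h, 37 °C) at 1,500 cells/well, were loaded with Ca8 no-wash dye plus quencher for 45-90 min at room temperature. Compounds were pinned during FDSS kinetic reading; agonist 54-4 at EC80 (4 uM final) then added.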
gsp antag: antagonists of gsp mutant (McCune-Albright syndrome). gsp-mutant cells, cAMP HTRF, 30 min; control for the full effect not named in the record. Potency, µM (top dose mostly 76.9 µM), for the others: top-dose activity change, negative = inhibition, actives largely listed as inhibitors. 0.4% of 340,000 active. AID 624288; active = falling curve of any shape with a large fitted effect; inconclusive = falling curve, mostly with a smaller effect; inactive = flat or rising curve; cell line not stated here;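 also: intracellular cAMP measured with PDE inhibitor Ro 20-1724 present during compound exposure; potency is read from the fitted curve at half-maximal effect; % is scaled to controls: 0 for no effect and ±100 for the full control effect; nearly all actives have a fitted effect of over 65% in size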
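Measurement of cellular cAMP by homogeneous time-resolved fluorescence following a 30 min compound exposure at 37C. The PDE inhibitor […] was present throughout; the assay buffer was DPBS with 0.05% BSA and 0.005% Tween 20.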
gsp ag: agonists of gsp mutant (McCune-Albright syndrome). Potency, µM (highest dose often 76.9 µM), for inactives: at the highest dose activation (cAMP increase), actives largely listed as activators. gsp mutant cells, cAMP HTRF, 30 min; control for the full effect not named in the record. AID 624287. 0.13% of 340,000 active; active = well fitted activation curve with a large enough effect; inconclusive = small, poorly fitted or top-dose-only effect, or another doubt; inactive = no such curve, though single readings can be large or run the other way; cell line not stated here;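 also: phosphodiesterase inhibitor Ro 20-1724 added with compounds to block cAMP breakdown; potency is read from the fitted curve at half-maximal effect; nearly all actives have a fitted effect of over 60% in size; about a fifth of the inactives were tested at one dose only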
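Cells stably selected in G418 were plated at 2000/well, grown 16-24 hr, then given compounds in DMSO with the PDE inhibitor […] (300 uM solution added) for 30 min at 37C; cAMP was read by HTRF.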
Sfp PPTase inh: inhibitors of Bacillus subtilis Sfp phosphopantetheinyl transferase; Q9F4F7; Biochemical Sfp PPTase activity, qHTS; Potency, µM, for the others: max response, negative = inhibition, most hits filed as inhibitors; 3.5% of 310,000 active; AID 1490; active = well fitted inhibition curve with a large enough effect; inconclusive = small, poorly fitted or top-dose-only effect, or another doubt; inactive = no such curve, though single readings can be large or run the other way;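 also: the enzyme is Sfp with the accession as filed and its product quenches rhodamine fluorescence; potency is read from the fitted curve at half-maximal effect; 0% = enzyme reaction without inhibitor and -100% = no enzyme wells; top concentration of the series not given in the record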
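With Hepes-Na pH 7.6 buffer containing 10 mM MgCl2, Sfp (15 nM) modified BHQ-2-YbbR (12.5 uM) using rhodamine-CoA (5 uM). Two reads 30 minutes apart at 525/598 nm yielded each well's rate.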
TRPV1 PAM: human TRPV1 potentiation; Q8NER1; TRPV1-expressing cells, Fluo-8 calcium influx, capsaicin EC20 potentiation; host cell line not named in the record; control for the full effect not named in the record; potentiation, % at 8.33 µM; 0.02% of 320,000 active; active means potentiation above 80%; inconclusive means 30% to 80%; inactive means below 30%; also: 0% is about no effect
Target sequence (Q8NER1 whole entry, looked up): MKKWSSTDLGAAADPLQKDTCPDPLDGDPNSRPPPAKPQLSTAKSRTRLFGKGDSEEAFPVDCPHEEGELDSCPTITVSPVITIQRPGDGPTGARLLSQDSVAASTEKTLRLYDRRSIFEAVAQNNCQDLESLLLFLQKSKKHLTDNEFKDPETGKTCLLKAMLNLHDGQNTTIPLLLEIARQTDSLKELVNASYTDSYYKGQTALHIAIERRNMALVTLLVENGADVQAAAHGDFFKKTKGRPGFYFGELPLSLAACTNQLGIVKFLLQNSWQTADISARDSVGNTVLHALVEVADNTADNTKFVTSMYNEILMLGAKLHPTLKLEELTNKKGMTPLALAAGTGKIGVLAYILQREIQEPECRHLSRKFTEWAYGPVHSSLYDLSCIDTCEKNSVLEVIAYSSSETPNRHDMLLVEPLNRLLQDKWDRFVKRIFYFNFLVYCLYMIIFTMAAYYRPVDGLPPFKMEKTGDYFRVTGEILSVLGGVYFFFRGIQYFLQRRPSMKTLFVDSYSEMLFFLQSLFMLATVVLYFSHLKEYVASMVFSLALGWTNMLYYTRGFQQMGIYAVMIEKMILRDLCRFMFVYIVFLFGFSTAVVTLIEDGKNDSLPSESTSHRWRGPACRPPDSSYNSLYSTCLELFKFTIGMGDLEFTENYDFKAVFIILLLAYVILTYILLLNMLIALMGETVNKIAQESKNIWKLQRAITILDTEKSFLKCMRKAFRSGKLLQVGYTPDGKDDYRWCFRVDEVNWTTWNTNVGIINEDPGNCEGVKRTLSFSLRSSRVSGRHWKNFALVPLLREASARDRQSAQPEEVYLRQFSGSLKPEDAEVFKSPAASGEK
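TRPV1-expressing cells were cultured overnight at 35.5C and loaded with Fluo-8 calcium dye for 40 to 90 min at room temperature. After a 10 s baseline, compound was added and calcium influx was read kinetically for 3 min (ex 480/em 520 nm).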
The depositor's hits bear a star; [ ] = another dose, or the depositor's remark.

How did Cc1ccc(C)c(CN2C(=O)c3ccccc3S(=O)c3ccc(C(=O)NCCCN4CCCC4)cc32)c1 (configuration not stated) do in these assays?
ClpP mod: 1.1%; Menin MLL FP FL: 1.0; TRPML1 inh: -10; gsp antag: -3%; gsp ag: 0%; Sfp PPTase inh: -6%; TRPV1 PAM: 5

Results for O=C(COC(=O)c1ccc(CO)cc1)NCc1cccs1 ?
ClpP mod: 0.9%; Menin MLL FP FL: 1.5; TRPML1 inh: 2; gsp antag: 3%; gsp ag: 10%; Sfp PPTase inh: 10%; TRPV1 PAM: -12

What do the screens show for `CC(=O)Nc1ccc(C=CC=Cc2cccc([N+](=O)[O-])c2)cc1`?
ClpP mod: 1.4%; TRPML1 inh: 11; gsp antag: inconclusive; gsp ag: -2%

What do the screens show for `O=S(=O)(NC1=NCCCCC1)c1cccs1`?
ClpP mod: 0.9%; Menin MLL FP FL: -1.1; TRPML1 inh: -14; gsp antag: 14%; gsp ag: 3%; Sfp PPTase inh: -7%; TRPV1 PAM: 17

How did COC(=O)/C=C1\N/C(=N\c2nc(C)cc(C)n2)N(c2ccc(C)c(C)c2)C1=O do in these assays?
ClpP mod: -7.2%; Menin MLL FP FL: 7.3; TRPML1 inh: 3; gsp antag: -1%; gsp ag: -5%[15.4 µM]; Sfp PPTase inh: -12%; TRPV1 PAM: -6

What do the screens show for `Cc1ccc(S(=O)(=O)N2CCOCC2)cc1NC(=O)CSc1cccc[n+]1[O-]`?
ClpP mod: -0.6%; Menin MLL FP FL: 0.8; TRPML1 inh: 7; gsp antag: 8%; gsp ag: 27%[15.4 µM]; Sfp PPTase inh: 14%; TRPV1 PAM: 3

How did O=C(N=Nc1c(O)[nH]c2ccc(Br)cc12)c1cc(-c2cccc3ccccc23)n[nH]1 do in these assays?
ClpP mod: 0.3%; Menin MLL FP FL: 4.1; TRPML1 inh: -3; gsp antag: 2%; gsp ag: -31%[inhibitor]; Sfp PPTase inh: -6%; TRPV1 PAM: 1

What do the screens show for `CC(C)=CC(=O)O[C@H]1[C@@H]2[C@H](C)C(=O)O[C@@H]2C[C@@H](C)[C@@H]2[C@@H](O)CC(=O)[C@]21C`?
ClpP mod: 1.4%; Menin MLL FP FL: 1.1; TRPML1 inh: -3; gsp antag: 7%; Sfp PPTase inh: 36%[activator]; TRPV1 PAM: 11

What do the screens show for `CCOCC(=O)Nc1nc2ccccc2s1`?
ClpP mod: -0.1%; Menin MLL FP FL: 1.3; TRPML1 inh: 16; gsp antag: -14%; gsp ag: -22%; Sfp PPTase inh: 50µM*; TRPV1 PAM: -4

What do the screens show for `COc1ccc(C(=O)Nc2ccccc2C(=O)NC(Cc2ccc(O)cc2)C(=O)NNC(=O)c2ccc(C)cc2)cc1` (configuration not stated)?
ClpP mod: 0.6%; Menin MLL FP FL: 8.0; TRPML1 inh: 13; gsp antag: 5%; gsp ag: 0%; Sfp PPTase inh: inconclusive; TRPV1 PAM: 4

How did O=C(Cc1ccccc1)Nc1ccc(NC(=O)c2ccco2)cc1Cl do in these assays?
Menin MLL FP FL: -3.5; TRPML1 inh: -10; gsp antag: -13%; gsp ag: 6%; Sfp PPTase inh: 11%; TRPV1 PAM: -14

How did COc1ccc([C@H]2/C=C\CN(S(=O)(=O)c3ccc4ccccc4c3)[C@@H](C)C(=O)N2Cc2ccc(F)cc2)cc1 do in these assays?
ClpP mod: -3.9%; TRPML1 inh: 13; gsp antag: 2%; gsp ag: -20%

Results for CC(=C/c1ccc(C(C)C)cc1)/C=N/NC(=O)Cn1nnnc1N ?
Menin MLL FP FL: 0.2; TRPML1 inh: 13; gsp antag: 0%; gsp ag: -24%[15.4 µM]; Sfp PPTase inh: 17%

How did COc1ccc(S(=O)(=O)NCc2ccc(C(=O)N3CCc4ccccc4C3)cc2)cc1 do in these assays?
ClpP mod: -1.1%; Menin MLL FP FL: -1.3; TRPML1 inh: 5; gsp antag: -13%; gsp ag: -9%; Sfp PPTase inh: 7%; TRPV1 PAM: 5

What do the screens show for `Cc1ccc(C(=O)NCC(=O)N(C)CC(=O)Nc2ccccc2Br)s1`?
ClpP mod: -10%; TRPML1 inh: -5; gsp antag: 3%; gsp ag: -3%; TRPV1 PAM: -4

How did COc1ccc(C(=O)NNC(=O)COC(=O)c2sccc2C)cc1 do in these assays?
ClpP mod: -0.4%; TRPML1 inh: 6; gsp antag: 4%; gsp ag: inconclusive; TRPV1 PAM: 10

Results for Cc1cc(C)n2ncc(/C(N)=N/OC(=O)Nc3ccccc3)c2n1 ?
ClpP mod: -0.4%; Menin MLL FP FL: 4.1; TRPML1 inh: 13; gsp antag: -3%; gsp ag: -6%[15.4 µM]; Sfp PPTase inh: 13%; TRPV1 PAM: -5

Results for CC(=O)C1=C(O)C(=O)N(c2ccc(S(=O)(=O)Nc3nccs3)cc2)C1c1ccc(F)cc1 (configuration not stated) ?
Menin MLL FP FL: 2.8; TRPML1 inh: 5; gsp antag: 4%; gsp ag: 23%[15.4 µM]; Sfp PPTase inh: -7%; TRPV1 PAM: 4

Results for Cc1csc(CN(C)C(=O)CC2C(=O)NCCN2Cc2ccc(-c3ccccc3)cc2)n1 (configuration not stated) ?
Menin MLL FP FL: 2.7; TRPML1 inh: 4; gsp antag: -7%; gsp ag: 7%[15.4 µM]; Sfp PPTase inh: 4%; TRPV1 PAM: -5

Results for CCOC(=O)c1cc(-c2ccc(OC(F)F)cc2)nc2nc(SC)[nH]c(=O)c12 ?
Menin MLL FP FL: 4.3; TRPML1 inh: 4; gsp antag: inconclusive; gsp ag: 22%; Sfp PPTase inh: 4%; TRPV1 PAM: 7

How did COc1ccc(C(=O)NCc2nnc(SCC(=O)Nc3cc(C)on3)o2)cc1OC do in these assays?
ClpP mod: 0.3%; Menin MLL FP FL: 4.9; TRPML1 inh: 1; gsp antag: -8%; gsp ag: 7%[15.4 µM]; Sfp PPTase inh: -19%; TRPV1 PAM: 4

Results for CCOC(=O)c1c(C)[nH]c(C)c1C(=O)CN1C(=O)NC2(CCC(C)CC2)C1=O (configuration not stated) ?
ClpP mod: -2.4%; Menin MLL FP FL: 2.9; TRPML1 inh: 13; gsp antag: -1%; gsp ag: 4%; Sfp PPTase inh: 24%; TRPV1 PAM: 2

What do the screens show for `Nc1nc(Nc2ccccc2)nc(NCc2ccccc2)c1[N+](=O)[O-]`?
ClpP mod: -0.2%; Menin MLL FP FL: 1.6; TRPML1 inh: 17; gsp antag: 8%; gsp ag: 2%[15.4 µM]; Sfp PPTase inh: -16%; TRPV1 PAM: -1

How did O=C(CCCC(=O)N(CC(=O)NC1CCCCC1)c1ccc(F)cc1)Nc1ccccn1 do in these assays?
Menin MLL FP FL: -4.4; TRPML1 inh: 7; gsp antag: -4%; gsp ag: 17%; Sfp PPTase inh: 23%; TRPV1 PAM: 4

What do the screens show for `Cc1ccc(C(=O)NCCSCc2ccccc2)cc1[N+](=O)[O-]`?
ClpP mod: 0.5%; Menin MLL FP FL: -0.9; TRPML1 inh: 22; gsp antag: -4%; gsp ag: 0%; Sfp PPTase inh: -13%; TRPV1 PAM: -23

Results for Cc1cccc(C2c3[nH]c4ccccc4c3CCN2C(=O)c2noc3c2CCCC3)n1 (configuration not stated) ?
ClpP mod: 0.3%; Menin MLL FP FL: -0.1; TRPML1 inh: -7; gsp antag: -2%; gsp ag: -8%; Sfp PPTase inh: 6%; TRPV1 PAM: 11

How did COc1ccc(/C=C(\C#N)C(=O)Nc2cc(S(=O)(=O)N3CCCCC3)ccc2N2CCCCC2)cc1 do in these assays?
ClpP mod: 0.7%; Menin MLL FP FL: 5.2; TRPML1 inh: -3; gsp antag: 9%; gsp ag: -2%; Sfp PPTase inh: -13%; TRPV1 PAM: -6

Results for CC1CN(S(=O)(=O)c2cccc(C(=O)NCc3ccco3)c2)CC(C)O1 (configuration not stated) ?
ClpP mod: -0.5%; TRPML1 inh: 8; gsp antag: 9%; gsp ag: 27%; TRPV1 PAM: -5

What do the screens show for `CCOC(=O)N1CCN(C(=O)CN(C)S(=O)(=O)c2ccc(OCC)cc2)CC1`?
ClpP mod: -1.7%; Menin MLL FP FL: 0.6; TRPML1 inh: 1; gsp antag: 9%; gsp ag: -11%[15.4 µM]; Sfp PPTase inh: -2%; TRPV1 PAM: 6

What do the screens show for `N#CC1=C(N)Oc2cc(O)ccc2C1C1CCCCC1` (configuration not stated)?
ClpP mod: 0.5%; Menin MLL FP FL: 0.1; TRPML1 inh: -1; gsp antag: -13%; gsp ag: -7%; Sfp PPTase inh: 12%; TRPV1 PAM: -2

How did Cc1c(CC(=O)N2CCC(C(N)=O)CC2)c(=O)oc2cc3c(cc12)CCC1(CCCCC1)O3 do in these assays?
ClpP mod: 5.0%; Menin MLL FP FL: -13; gsp antag: -19%; Sfp PPTase inh: -13%; TRPV1 PAM: 6

Results for COc1ccccc1C(=O)NCC(=O)OC(C)C(=O)NC(=O)NC1CCCCC1 (configuration not stated) ?
ClpP mod: -1.8%; Menin MLL FP FL: 1.5; TRPML1 inh: -16; gsp antag: -2%; gsp ag: -2%; Sfp PPTase inh: -1%; TRPV1 PAM: -8

Results for CC/C(=N\NC(=O)c1nnn(-c2nonc2N)c1-c1ccc2c(c1)OCO2)c1ccccc1 ?
ClpP mod: -23%; Menin MLL FP FL: -3.5; TRPML1 inh: 6; gsp antag: -32%; gsp ag: -34%[inhibitor]; Sfp PPTase inh: 11%; TRPV1 PAM: 11

Results for CN1CCN(C(=O)c2cc3c(n(-c4ccccc4)c2=O)CC(C)(C)CC3=O)CC1 ?
ClpP mod: -11%; Menin MLL FP FL: 1.9; TRPML1 inh: -6; gsp antag: 10%; gsp ag: -23%; Sfp PPTase inh: 4%; TRPV1 PAM: 4

What do the screens show for `C=C1C(C(=O)N2CCOCC2)C1C(=O)N1CCOCC1` (configuration not stated)?
ClpP mod: 0.8%; Menin MLL FP FL: 4.1; TRPML1 inh: 5; gsp antag: 4%; gsp ag: -1%; Sfp PPTase inh: 20%; TRPV1 PAM: 1
